HIV Env fusion: inhibitors of HIV-1 Env-driven cell-cell fusion, primary screen, HeLa-JRFL effector, CEM21 target cells, luciferase. inhibition, % at 12.3 µM. hit rate 1.1% among 360,000;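 active = mean replicate inhibition score of at least 50 and every replicate individually at or above 50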;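 also: 0% = plate neutral controls and 100% = maraviroc near 300 nM; one replicate is shown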
Yeast UUG start: modulators of yeast start codon fidelity, primary screen, whole organism, S. cerevisiae, single point, plate reader | AID 602363, 2012 | hit rate 0.13% among 350,000 | activity score, % at 18.7 µM | S. cerevisiae UUG-firefly luciferase reporter, luminescence/redox ratio;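 active = replicate mean at a twofold rise or more, about +100% in these data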;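 also: firefly luciferase made from a UUG start codon reports start codon fidelity; reporter light over untreated wells divided by growth signal over untreated wells; some hits fall short of that in this replicate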
Active calls of the source: *; [ ] = dose if it differs, or a comment.

SMILES	HIV Env fusion	Yeast UUG start
C[C@H]1CN([C@@H](C)CO)C(=O)Cc2cc(NC(=O)CCCCCC(=O)Nc3ccccc3N)ccc2O[C@H]1CN(C)S(=O)(=O)c1cn(C)cn1	-2[16.7 µM]	5
CC(C)NC(=O)Nc1ccc2c(c1)C(=O)N([C@@H](C)CO)C[C@H](C)[C@@H](CN(C)Cc1ccc(C(=O)O)cc1)O2	5[16.7 µM]	-3
COc1ccc(S(=O)(=O)N(C)C[C@@H]2Oc3ccc(NC(=O)Nc4ccccc4)cc3C(=O)N([C@@H](C)CO)C[C@@H]2C)cc1	31[16.7 µM]	-5
C/C=C/c1ccc2c(c1)O[C@H](CN(C)C(=O)Nc1ccccc1)[C@@H](C)CN([C@@H](C)CO)S2(=O)=O	-22[16.7 µM]	-10
COC(=O)C[C@H]1CC[C@@H]2[C@H](COc3ccc(NC(=O)c4cccc(OC)c4)cc3C(=O)N2C)O1	-20[16.7 µM]	0
COc1ccc(S(=O)(=O)N(C)C[C@H]2Oc3ccc(NC(=O)Cc4cn(C)c5ccccc45)cc3CC(=O)N([C@H](C)CO)C[C@@H]2C)cc1	-12[16.7 µM]	-5
C[C@@H]1CN([C@H](C)CO)C(=O)Cc2cc(NC(=O)Cc3ccccc3)ccc2O[C@@H]1CN(C)Cc1ccc(-c2ccccc2)cc1	-158[16.7 µM]	14
C[C@@H]1CN([C@@H](C)CO)C(=O)c2cc(NC(=O)C3CC3)ccc2O[C@@H]1CN(C)Cc1ccncc1	-1[16.7 µM]	-1
CS(=O)(=O)Nc1ccc2c(c1)[C@H]1C[C@H](CC(=O)N3CCc4ccccc4C3)O[C@@H](CO)[C@H]1O2	-10[16.7 µM]	9
Cc1cc(C(=O)Nc2cccc3c2O[C@@H](CN(C)Cc2ccc(C(F)(F)F)cc2)[C@H](C)CN([C@@H](C)CO)C3=O)n(C)n1	-40[16.7 µM]	1
CCCc1cn(CC[C@H]2CC[C@H](NC(=O)Nc3ccc4c(c3)OCO4)[C@@H](CO)O2)nn1	2[16.7 µM]	-10
CC(C)CC#Cc1cnc2c(c1)C(=O)N([C@@H](C)CO)C[C@@H](C)[C@@H](CN(C)C(=O)Cc1ccncc1)O2	-40[16.7 µM]	-6

The closing three compounds of the part before open the next one:
SMILES	HIV Env fusion	Yeast UUG start
Cc1cc(C(=O)Nc2cccc3c2O[C@@H](CN(C)Cc2ccc(C(F)(F)F)cc2)[C@H](C)CN([C@@H](C)CO)C3=O)n(C)n1	-40[16.7 µM]	1
CCCc1cn(CC[C@H]2CC[C@H](NC(=O)Nc3ccc4c(c3)OCO4)[C@@H](CO)O2)nn1	2[16.7 µM]	-10
CC(C)CC#Cc1cnc2c(c1)C(=O)N([C@@H](C)CO)C[C@@H](C)[C@@H](CN(C)C(=O)Cc1ccncc1)O2	-40[16.7 µM]	-6
C[C@@H]1CCCCO[C@H](CN(C)Cc2ccc(C(=O)O)cc2)[C@@H](C)CN([C@@H](C)CO)C(=O)c2cc(NS(=O)(=O)c3cccs3)ccc2O1	4[16.7 µM]	16
CCCC(=O)Nc1ccc2c(c1)C(=O)N(C)C[C@@H](OC)[C@H](C)CN(C(=O)c1ccccc1F)[C@@H](C)CO2	2[16.7 µM]	-6
CNC[C@H]1Oc2cc(C#Cc3cccnc3)ccc2S(=O)(=O)N([C@H](C)CO)C[C@@H]1C	-26[16.7 µM]	-10
CN(C)C(=O)C[C@H]1CC[C@@H](NC(=O)NC2CCCC2)[C@@H](CO)O1	-1[16.7 µM]	-17
C[C@@H]1CN([C@H](C)CO)S(=O)(=O)c2ccc(-c3ccc(F)cc3)cc2O[C@@H]1CN(C)C(=O)C1CC1	15[16.7 µM]	5
CC(C)NC(=O)N(C)C[C@@H]1Oc2ccc(NC(=O)NC3CCCCC3)cc2C(=O)N([C@H](C)CO)C[C@@H]1C	11[16.7 µM]	-5
COc1cccc(S(=O)(=O)N[C@@H]2C=C[C@H](CC(=O)NC3CCC3)O[C@H]2CO)c1	-3[16.7 µM]	3
C[C@@H]1CN([C@@H](C)CO)S(=O)(=O)c2ccc(/C=C/c3ccccc3)cc2O[C@H]1CN(C)C(=O)c1cccnc1	5[16.7 µM]	-7
C[C@@H]1CN([C@H](C)CO)S(=O)(=O)c2ccc(C#CC3CCCC3)cc2O[C@H]1CN(C)Cc1cccnc1	27[16.7 µM]	10
C[C@@H]1CN([C@H](C)CO)C(=O)c2cc(NS(=O)(=O)c3ccccc3)ccc2O[C@@H](C)CCCCO[C@@H]1CN(C)C(=O)C1CCCCC1	-9[16.7 µM]	2
CC(C)NC(=O)Nc1ccc2c(c1)CC(=O)N([C@H](C)CO)C[C@H](C)[C@@H](CN(C)C(=O)Nc1ccc(F)cc1)O2	9[16.7 µM]	2
COc1ccc(NC(=O)Nc2ccc3c(c2)C(=O)N([C@@H](C)CO)C[C@H](C)[C@H](CN(C)S(=O)(=O)c2ccc(OC)cc2)OCCCC[C@@H](C)O3)cc1	13[16.7 µM]	-3
C[C@@H]1CCCCO[C@H](CN(C)Cc2ccc(Cl)c(Cl)c2)[C@@H](C)CN([C@@H](C)CO)C(=O)c2cc(NC(=O)Nc3ccc(C(F)(F)F)cc3)ccc2O1	24[16.7 µM]	-11
O=S(=O)(N[C@H]1CC[C@@H](CCn2cc(C3(O)CCCC3)nn2)O[C@H]1CO)c1ccccc1	-15[16.7 µM]	-10
CN1C(=O)c2cc(NC(=O)C3CC3)ccc2OC[C@@H]2O[C@@H](CC(=O)NCc3cccc(F)c3)CC[C@@H]21	-4[16.7 µM]	5
C[C@H](CO)N1C[C@H](C)[C@H](CN(C)Cc2ccc(-c3ccccc3)cc2)Oc2c(NC(=O)c3nc4ccccc4s3)cccc2C1=O	22[16.7 µM]	9
Cc1noc(C)c1S(=O)(=O)Nc1ccc2c(c1)CC(=O)N([C@H](C)CO)C[C@H](C)[C@@H](CN(C)C(=O)Nc1ccc3c(c1)OCO3)O2	-13[16.7 µM]	23
C[C@@H]1CCCCO[C@@H](CN(C)S(=O)(=O)c2ccc(F)cc2)[C@@H](C)CN([C@@H](C)CO)C(=O)c2cc(NC(=O)c3ccncc3)ccc2O1	-14[16.7 µM]	-1
CO[C@@H]1CN(C)C(=O)c2cc(NC(=O)Nc3ccccc3)ccc2OC[C@H](C)NC[C@H]1C	5[16.7 µM]	9
C[C@@H]1CN([C@H](C)CO)C(=O)c2cccc(NC(=O)Nc3cccc4ccccc34)c2O[C@H]1CN(C)S(=O)(=O)c1ccc(Cl)cc1	-1[16.7 µM]	-15
C[C@H]1CN([C@@H](C)CO)C(=O)c2cc(NC(=O)Nc3ccc(F)cc3)ccc2O[C@@H]1CN(C)S(=O)(=O)c1cn(C)cn1	-21[16.7 µM]	40
C[C@@H]1CN([C@@H](C)CO)C(=O)c2cc(-c3cccnc3)cnc2O[C@@H]1CN(C)C(=O)C1CCC1	-6[16.7 µM]	-13
CCN1C[C@@H](C)[C@H](OC)CN(C)C(=O)c2cc(NC(=O)c3ccno3)ccc2OC[C@H]1C	3[16.7 µM]	5
C[C@H](CO)N1C[C@H](C)[C@H](CN(C)S(=O)(=O)c2cn(C)cn2)OCCCC[C@H](C)Oc2ccc(N(C)C)cc2C1=O	-9[16.7 µM]	9
C[C@H](CO)N1C[C@H](C)[C@@H](CN(C)C(=O)Nc2ccc(F)cc2)Oc2ccc(NS(=O)(=O)c3cccs3)cc2C1=O	6[16.7 µM]	-9
Cc1noc(C)c1S(=O)(=O)N(C)C[C@@H]1OCCCC[C@H](C)Oc2ccc(NC(=O)C3CCCCC3)cc2C(=O)N([C@@H](C)CO)C[C@@H]1C	-235[16.7 µM]	20
C[C@H]1CN([C@@H](C)CO)S(=O)(=O)c2ccc(-c3cncnc3)cc2O[C@H]1CN(C)C(=O)Cc1ccncc1	-8[16.7 µM]	5
C[C@H](NC(=O)C[C@@H]1CC[C@H]2[C@@H](COC[C@@H](O)CN2C)O1)c1ccccc1	-1[16.7 µM]	-17
COCC(=O)N(C)C[C@H]1Oc2ncc(C3=CCCC3)cc2C(=O)N([C@H](C)CO)C[C@H]1C	-5[16.7 µM]	6
O=C(C[C@@H]1CC[C@@H](NC(=O)C2CCC2)[C@@H](CO)O1)NC1CCC1	-34[16.7 µM]	-1
CCS(=O)(=O)N[C@H]1C=C[C@H](CC(=O)NC2Cc3ccccc3C2)O[C@H]1CO	8[16.7 µM]	-15
C[C@H]1CCCCO[C@@H](CN(C)C(=O)CCCN(C)C)[C@@H](C)CN([C@@H](C)CO)C(=O)c2cc(NS(=O)(=O)c3ccc(Cl)cc3)ccc2O1	-11[16.7 µM]	17
CO[C@@H]1CN(C)C(=O)c2cc(NC(=O)Nc3ccccc3F)ccc2OC[C@@H](C)N(Cc2ccccc2F)C[C@H]1C	-13[16.7 µM]	-22
C[C@H]1CN([C@@H](C)CO)C(=O)c2cccc(NS(=O)(=O)c3cn(C)cn3)c2O[C@@H]1CN(C)Cc1ccccc1	4[16.7 µM]	-15
Cc1ccc(S(=O)(=O)N[C@@H]2CC[C@H](CCn3cc(-c4ccccc4F)nn3)O[C@H]2CO)cc1	-12[16.7 µM]	9
COCC(=O)N(C)C[C@@H]1Oc2ncc(-c3ccccc3C)cc2C(=O)N([C@@H](C)CO)C[C@H]1C	-13[16.7 µM]	1
Cc1noc(C)c1S(=O)(=O)Nc1ccc2c(c1)C(=O)N([C@@H](C)CO)C[C@H](C)[C@H](CN(C)C(=O)Nc1ccc(F)cc1)OCCCC[C@H](C)O2	12[16.7 µM]	-1
CC(C)CC#Cc1ccc2c(c1)O[C@@H](CN(C)C(=O)Cc1ccncc1)[C@H](C)CN([C@H](C)CO)S2(=O)=O	14[16.7 µM]	-7
C[C@@H]1CN([C@H](C)CO)S(=O)(=O)c2ccc(C#CCC3CCCC3)cc2O[C@@H]1CN(C)C(=O)c1ccccn1	30[16.7 µM]	-11
C[C@@H]1CCCCO[C@@H](CN(C)S(=O)(=O)c2cn(C)cn2)[C@H](C)CN([C@H](C)CO)C(=O)c2cc(NC(=O)CCC(F)(F)F)ccc2O1	-9[16.7 µM]	5
C[C@@H]1CN([C@H](C)CO)C(=O)c2cc(NC(=O)Nc3ccc(F)cc3)ccc2O[C@@H]1CN(C)S(C)(=O)=O	1[16.7 µM]	2
C[C@@H]1CCCCO[C@H](CN(C)S(=O)(=O)c2cn(C)cn2)[C@@H](C)CN([C@H](C)CO)C(=O)c2cc(NC(=O)Nc3ccc(C(F)(F)F)cc3)ccc2O1	-2[16.7 µM]	-19
C[C@H](CO)N1C[C@H](C)[C@@H](CN(C)S(=O)(=O)c2ccc(Cl)cc2)Oc2ccc(NC(=O)Nc3ccc(F)cc3)cc2CC1=O	20[16.7 µM]	-6
C[C@H](CO)N1C[C@H](C)[C@@H](CN(C)Cc2ccc(C(=O)O)cc2)OCCCC[C@H](C)Oc2ccc(NC(=O)Nc3ccc4c(c3)OCO4)cc2C1=O	-5[16.7 µM]	2
C[C@H]1CN([C@@H](C)CO)S(=O)(=O)c2ccc(C#CC3CC3)cc2O[C@H]1CN(C)CC1CC1	-1[16.7 µM]	6
CN(C)CC(=O)N[C@H]1CC[C@@H](CCNC(=O)C2CCCCC2)O[C@H]1CO	0[16.7 µM]	13
COc1ccc(NC(=O)N(C)C[C@H]2OCCCC[C@@H](C)Oc3ccc(NS(=O)(=O)c4ccc(F)cc4)cc3C(=O)N([C@H](C)CO)C[C@H]2C)cc1	-26[16.7 µM]	13
CC(=O)N[C@@H]1CC[C@H](CCNC(=O)C2CC2)O[C@@H]1CO	-10[16.7 µM]	-7

Reprinted from the results shown (five entries):
SMILES	HIV Env fusion	Yeast UUG start
C[C@H](CO)N1C[C@H](C)[C@@H](CN(C)Cc2ccc(C(=O)O)cc2)OCCCC[C@H](C)Oc2ccc(NC(=O)Nc3ccc4c(c3)OCO4)cc2C1=O	-5[16.7 µM]	2
C[C@H]1CN([C@@H](C)CO)S(=O)(=O)c2ccc(C#CC3CC3)cc2O[C@H]1CN(C)CC1CC1	-1[16.7 µM]	6
CN(C)CC(=O)N[C@H]1CC[C@@H](CCNC(=O)C2CCCCC2)O[C@H]1CO	0[16.7 µM]	13
COc1ccc(NC(=O)N(C)C[C@H]2OCCCC[C@@H](C)Oc3ccc(NS(=O)(=O)c4ccc(F)cc4)cc3C(=O)N([C@H](C)CO)C[C@H]2C)cc1	-26[16.7 µM]	13
CC(=O)N[C@@H]1CC[C@H](CCNC(=O)C2CC2)O[C@@H]1CO	-10[16.7 µM]	-7

Next results:
SMILES	HIV Env fusion	Yeast UUG start
C[C@H](CO)N1C[C@H](C)[C@@H](CN(C)C(=O)Cc2ccccn2)Oc2ncc(C#CC3CCCC3)cc2C1=O	5[16.7 µM]	10
COCC(=O)Nc1ccc2c(c1)OC[C@H](C)N(C(=O)c1ccncc1)C[C@H](C)[C@H](OC)CN(C)C2=O	-12[16.7 µM]	-8
C[C@H]1CN([C@@H](C)CO)C(=O)c2cc(C#CC3CC3)cnc2O[C@H]1CN(C)Cc1ccncc1	-11[16.7 µM]	-5
O=C(C[C@H]1CC[C@@H](NS(=O)(=O)c2ccc(F)cc2)[C@H](CO)O1)NC1CCC1	-34[16.7 µM]	0
COc1cccc(-c2cnc3c(c2)C(=O)N([C@H](C)CO)C[C@@H](C)[C@H](CN(C)C(C)=O)O3)c1	-17[16.7 µM]	3
C[C@@H]1CN([C@H](C)CO)C(=O)c2cc(NC(=O)Nc3ccc4c(c3)OCO4)ccc2O[C@H]1CN(C)S(=O)(=O)c1ccccc1	-2[16.7 µM]	6
C[C@H](CO)N1C[C@H](C)[C@H](CN(C)S(=O)(=O)c2ccccc2F)Oc2cc(-c3ccccc3)ccc2S1(=O)=O	20[16.7 µM]	-15
CCC(=O)Nc1ccc2c(c1)C(=O)N(C)C[C@@H](OC)[C@@H](C)CN(C(=O)c1ccccc1F)[C@H](C)CO2	-37[16.7 µM]	-7
C[C@H]1CCCCO[C@H](CN(C)Cc2ccncc2)[C@@H](C)CN([C@@H](C)CO)C(=O)c2cc(NC(=O)Nc3ccc(F)cc3)ccc2O1	10[16.7 µM]	-5

Screens as filed in PubChem BioAssay.

Only part of the results is shown; rates above refer to the full screens.
